Vaccinia inh = blocks a specific stage of Vaccinia orthopoxvirus infection. Vaccinia-infected cells, mCherry/Venus stage reporter fluorescence; active compounds read low; some inactives read as strong as hits. activity change (mCherry), % (no concentration beside the values). actives 0.01% (n = 89,000). AID 1053133;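 active means mCherry past -33% and 40 or more points under the early reporter, replicates agreeing; inconclusive means past -33% without that gap or agreement; tested in A549 cells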;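 further: scaled between vehicle wells and reference inhibitor wells; 23 nL library stock went into each well; one replicate is shown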
Vaccinia inh Venus = second read-out of Vaccinia inh, no call of its own (marks repeat the call); activity change (Venus), %; measured here: Venus reporter, other viral stage;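 negative = less Venus signal; first of two replicates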
* hit, by the source's call; ? = inconclusive; . = no result given; & = joins results of further samples.

Compound,Vaccinia inh Venus,Vaccinia inh
C/C=C/c1ccc([C@@H]2[C@H](CO)N(C(=O)CN(C)C)C23CN(C(=O)C2CCOCC2)C3)cc1,2.2,0.0
N#Cc1cccc(-c2ccc([C@@H]3[C@H](CO)N4CCCCN(S(=O)(=O)c5ccccc5)C[C@@H]34)cc2)c1,-17.9,-26.4
C[C@@H]1CN([C@@H](C)CO)C(=O)c2cc(NS(=O)(=O)c3ccc(Cl)cc3)ccc2O[C@H]1CN(C)C,11.6,10.7
CC(C)C#Cc1ccc2c(c1)O[C@H](CN(C)Cc1cncnc1)[C@H](C)CN([C@@H](C)CO)S2(=O)=O,-7.1,-3.8
CC(C)NC(=O)N1[C@@H]2CN(C(=O)c3ccccn3)c3ccccc3[C@@H]2[C@@H]1CO,11.4,22.1
CO[C@H]1CN(C)C(=O)c2cc(C#N)ccc2OCC[C@@H]2CC[C@@H](OC)[C@@H](CN(C)C(=O)[C@@H]1C)O2,24.2&6.4,29.2&3.9
Cc1ccc(S(=O)(=O)N(C)C[C@@H]2Oc3c(NC(=O)Nc4ccccc4)cccc3C(=O)N([C@@H](C)CO)C[C@@H]2C)cc1,.,?
C[C@@H]1CN([C@@H](C)CO)C(=O)c2cccc(NC(=O)c3cnccn3)c2O[C@H]1CN(C)S(=O)(=O)c1cn(C)cn1,13.0,16.6
C[C@H](CO)N1C[C@H](C)[C@H](CN(C)C(=O)Nc2ccc3c(c2)OCO3)Oc2ccc(NC(=O)NC3CCCCC3)cc2C1=O,0.7,16.1
CC(=O)N1[C@H](C(=O)NCCCN(C)C)[C@@H](CO)[C@@H]2Cn3c(ccc(-c4cccc(F)c4)c3=O)[C@@H]21,-0.8,8.2
O=C(Cc1ccncc1)NCC[C@H]1CC[C@H](NC(=O)C2CC2)[C@H](CO)O1,3.3,4.6
C[C@@H]1CN([C@H](C)CO)C(=O)Cc2cc(NC(=O)Nc3ccc(C(F)(F)F)cc3)ccc2O[C@@H]1CN(C)Cc1ccc(C(=O)O)cc1,-6.4,-0.9

(next part)
Compound,Vaccinia inh Venus,Vaccinia inh
C[C@@H]1CN([C@@H](C)CO)C(=O)c2cc(/C=C/c3ccccc3)cnc2O[C@H]1CN(C)C(=O)NC1CCCCC1,-7.3,-22.2
COc1ccc(NC(=O)Nc2ccc3c(c2)CC(=O)N([C@@H](C)CO)C[C@H](C)[C@H](CN(C)Cc2ccc(Oc4ccccc4)cc2)O3)cc1,6.3,-5.9
C[C@H]1CN([C@@H](C)CO)C(=O)Cc2cc(NC(=O)Nc3cccc4ccccc34)ccc2O[C@@H]1CN(C)S(=O)(=O)c1ccc(F)cc1,26.7,21.0
C[C@@H]1CCCCO[C@@H](CN(C)S(=O)(=O)c2ccccc2)[C@H](C)CN([C@H](C)CO)C(=O)c2cc(NC(=O)Nc3cccc4ccccc34)ccc2O1,5.6,17.5
C[C@@H]1CN([C@H](C)CO)C(=O)c2cc(NC(=O)Nc3ccc(F)cc3)ccc2O[C@@H](C)CCCCO[C@H]1CN(C)S(=O)(=O)c1ccccc1,-3.2,0.0
CCO[C@H]1OC(C(=O)NCc2ccccc2)=C[C@@H](c2csc3ccccc23)[C@@H]1CCCO,-6.3,-4.7
COc1ccc2c3c(n(C)c2c1)[C@@H](CO)N(C(=O)CC1CC1)CC31CN(C(=O)CC2CC2)C1,2.0,16.1
Cc1ccc(S(=O)(=O)Nc2ccc3c(c2)C(=O)N([C@H](C)CO)C[C@H](C)[C@@H](CN(C)C(=O)Nc2cccc4ccccc24)OCCCC[C@H](C)O3)cc1,17.5,23.9
C[C@H](CO)N1C[C@H](C)[C@H](CN(C)Cc2ccc(C(=O)O)cc2)Oc2ncc(C#CCN(C)C)cc2C1=O,13.0,33.5
CCCNC(=O)N1C[C@@H](O)COC[C@@H]2O[C@H](CC(=O)NCc3ccncn3)CC[C@H]21,-7.5,-4.9
O=C(CN1CCOCC1)N1CCCCN2[C@H](CO)[C@@H](c3ccc(C#Cc4ccccc4F)cc3)[C@H]2C1,-37.4,-10.7
C[C@@H]1CN([C@H](C)CO)C(=O)c2cc(C#CC(C)(C)O)cnc2O[C@H]1CN(C)C(=O)CN(C)C,22.2,29.0

New compounds follow
Compound,Vaccinia inh Venus,Vaccinia inh
C[C@H](NC(=O)C[C@H]1CC[C@@H](NC(=O)c2cccnc2)[C@H](CO)O1)c1ccccc1,2.1,4.3
Cc1noc(C)c1S(=O)(=O)Nc1cccc2c1O[C@H](CN(C)C)[C@H](C)CN([C@@H](C)CO)C2=O,12.1,16.3
CCCN1C[C@H](C)[C@H](OC)CN(C)C(=O)c2ccc(NC(=O)c3cnccn3)cc2OC[C@H]1C,7.0,13.8
CC=Cc1ccc2n(c1=O)C[C@@H]1[C@@H](CO)[C@H](C(=O)NC3CCCC3)N(Cc3cccnc3)[C@H]21 (mixture of isomers),-8.1,-6.5
C=CCOC(=O)C1=C[C@@H](c2ccccc2)C[C@@H](OCc2ccc(CO)cc2)O1,-3.6,2.6
C[C@@H]1CN([C@@H](C)CO)C(=O)c2cccc(NS(=O)(=O)c3cn(C)cn3)c2O[C@H]1CN(C)C,5.5,13.9
Cc1ccc(S(=O)(=O)NCC[C@@H]2CC[C@@H](NC(=O)C3CCOCC3)[C@H](CO)O2)cc1,3.3,-3.9
COc1ccc(S(=O)(=O)N(C)C[C@@H]2Oc3ccc(NC(=O)Nc4c(C)noc4C)cc3CC(=O)N([C@@H](C)CO)C[C@@H]2C)cc1,7.7,-2.7
O=C(C[C@H]1CC[C@H](NC(=O)C2CC2)[C@H](CO)O1)NC1CCC1,9.5,6.3
CO[C@@H]1CN(C)C(=O)c2ccc(NC(=O)Nc3cc(F)ccc3F)cc2OC[C@@H](C)N(C(=O)c2cnccn2)C[C@H]1C,8.2,0.5
COCC#Cc1cnc2c(c1)C(=O)N([C@@H](C)CO)C[C@H](C)[C@@H](CN(C)C(=O)Nc1ccc(OC)cc1)O2,2.8,24.4
COc1ccc2c3c(n(C)c2c1)[C@H](CO)N(S(C)(=O)=O)CC31CCN(C(=O)C2CCC2)CC1,-5.5,0.8

Going on with the list:
Compound,Vaccinia inh Venus,Vaccinia inh
O=C(C[C@H]1C[C@H]2c3cc(NC(=O)c4ccc5c(c4)OCO5)ccc3O[C@H]2[C@H](CO)O1)NCc1cc(F)ccc1F,8.6,1.1
O=C(Cc1cccnc1)N1[C@@H](CO)[C@H](c2ccccc2)[C@@H]1CNCC1CCC1,-13.7,-28.0
C[C@H]1CN([C@@H](C)CO)S(=O)(=O)c2ccc(C#CC(C)(C)O)cc2O[C@@H]1CN(C)CC1CC1,-8.2,-5.8
COc1ccc(S(=O)(=O)N(C)C[C@@H]2Oc3cc(-c4cccc(F)c4)ccc3S(=O)(=O)N([C@@H](C)CO)C[C@@H]2C)cc1,.,?
COCC(=O)Nc1ccc2c(c1)C(=O)N(C)C[C@@H](OC)[C@H](C)CN(CC1CCCCC1)[C@H](C)CO2,-6.4,-14.4
CO[C@H](CN(C)C(=O)c1ccccc1F)[C@H](C)CN([C@@H](C)CO)S(=O)(=O)c1ccccc1,19.3,23.4
O=C(C[C@H]1C=C[C@H](NC(=O)Nc2ccc3c(c2)OCO3)[C@@H](CO)O1)NCc1ccc(Cl)cc1,4.7,4.3
Cc1ccc(S(=O)(=O)N2C[C@@H]3N[C@H](C2)C3c2ccc(-c3ccncc3)cc2)cc1 (stereo partly specified),12.1,?
C[C@@H]1CN([C@@H](C)CO)C(=O)Cc2cc(NS(=O)(=O)c3ccccc3)ccc2O[C@@H]1CN(C)S(=O)(=O)c1cccs1,0.6,23.4
COc1ccc(S(=O)(=O)Nc2ccc3c(c2)C(=O)N([C@H](C)CO)C[C@@H](C)[C@H](CN(C)C(=O)Nc2ccc(F)cc2)O3)cc1,2.9,7.2
CC(=O)N(C)C[C@@H]1Oc2ncc(C#Cc3ccccc3)cc2C(=O)N([C@@H](C)CO)C[C@@H]1C,15.8,20.2
C[C@@H]1CN([C@@H](C)CO)S(=O)(=O)c2ccc(C#C[C@@H](C)O)cc2O[C@H]1CN(C)Cc1cncnc1,2.6,1.0

Continued.
Compound,Vaccinia inh Venus,Vaccinia inh
COc1ccc(NC(=O)Nc2ccc3c(c2)[C@@H]2C[C@H](CC(=O)N(C)C)O[C@H](CO)[C@@H]2O3)cc1,-1.7,7.7
COCC(=O)Nc1ccc2c(c1)[C@@H]1C[C@H](CC(=O)NCc3ccccn3)O[C@H](CO)[C@@H]1O2,10.4,10.4
C[C@@H]1CN([C@@H](C)CO)S(=O)(=O)c2ccc(C#Cc3ccc(F)cc3)cc2O[C@H]1CN(C)C(=O)CN(C)C,.,?
COc1ccccc1S(=O)(=O)N1CC[C@@H]2[C@H](CO)Nc3ccc(-c4ccccc4)cc3[C@@H]21,.,?
C/C=C/c1ccc([C@H]2[C@@H](CO)N(CC3CC3)[C@@H]2CNC(=O)c2ccccc2)cc1,.,?
COc1ccc(S(=O)(=O)Nc2ccc3c(c2)CC(=O)N([C@@H](C)CO)C[C@@H](C)[C@H](CN(C)C(=O)Nc2ccc4c(c2)OCO4)O3)cc1,17.4,41.4
O=C(Cc1ccncc1)NCC[C@@H]1CC[C@H](NC(=O)Nc2cccc(F)c2)[C@@H](CO)O1,11.3,15.1
C[C@@H](NC(=O)C[C@@H]1CC[C@@H]2[C@@H](COc3ccc(NS(=O)(=O)c4ccc(Cl)cc4)cc3C(=O)N2C)O1)c1ccccc1,0.0,-10.6
CCCC#Cc1cnc2c(c1)C(=O)N([C@@H](C)CO)C[C@H](C)[C@@H](CN(C)C(=O)Cc1cccnc1)O2,1.2,2.4
O=C(C[C@H]1CC[C@@H]2[C@H](COC[C@@H](O)CN2C(=O)Nc2cccc(Cl)c2)O1)NCCCN1CCOCC1,7.8,9.3
Cc1ccc(S(=O)(=O)Nc2ccc3c(c2)C(=O)N([C@H](C)CO)C[C@@H](C)[C@H](CN(C)C(=O)Nc2ccc(C(F)(F)F)cc2)O3)cc1,2.0,20.8
C[C@@H]1CN([C@H](C)CO)C(=O)c2cccc(NC(=O)CCCCCC(=O)Nc3ccccc3N)c2O[C@@H]1CN(C)C(=O)Nc1ccc(F)cc1,-0.5,3.7

4 compounds already listed, ordered by molar mass, highest first:
Compound,Vaccinia inh Venus,Vaccinia inh
C[C@H](CO)N1C[C@H](C)[C@H](CN(C)C(=O)Nc2ccc3c(c2)OCO3)Oc2ccc(NC(=O)NC3CCCCC3)cc2C1=O,0.7,16.1
C[C@@H]1CN([C@@H](C)CO)S(=O)(=O)c2ccc(C#Cc3ccc(F)cc3)cc2O[C@H]1CN(C)C(=O)CN(C)C,.,?
C[C@H]1CN([C@@H](C)CO)S(=O)(=O)c2ccc(C#CC(C)(C)O)cc2O[C@@H]1CN(C)CC1CC1,-8.2,-5.8
O=C(Cc1ccncc1)NCC[C@H]1CC[C@H](NC(=O)C2CC2)[C@H](CO)O1,3.3,4.6

Pulled by compound from above:
Compound,Vaccinia inh Venus,Vaccinia inh
Cc1ccc(S(=O)(=O)Nc2ccc3c(c2)C(=O)N([C@H](C)CO)C[C@@H](C)[C@H](CN(C)C(=O)Nc2ccc(C(F)(F)F)cc2)O3)cc1,2.0,20.8
COc1ccccc1S(=O)(=O)N1CC[C@@H]2[C@H](CO)Nc3ccc(-c4ccccc4)cc3[C@@H]21,.,?

Other records
Compound,Vaccinia inh Venus,Vaccinia inh
O=C(C[C@@H]1C[C@@H]2c3cc(NC(=O)NC4CCCC4)ccc3O[C@@H]2[C@H](CO)O1)NCc1ccccc1F,11.1,17.2
CCC(=O)N1CCCCN2[C@H](CO)[C@H](c3ccc(-c4cccc(C(=O)N(C)C)c4)cc3)[C@H]2C1,15.3,51.3
COc1ccc(S(=O)(=O)Nc2ccc3c(c2)CC(=O)N([C@H](C)CO)C[C@@H](C)[C@@H](CN(C)S(=O)(=O)c2cccs2)O3)cc1,17.1,10.5
O=C(c1ccc(F)cc1)N1C[C@H]2[C@@H](c3ccccc31)[C@H](CO)N2C(=O)c1ccc(F)cc1,12.8,22.6
C[C@H](CO)N1C[C@H](C)[C@H](CN(C)S(=O)(=O)c2ccc(F)cc2)Oc2c(NS(=O)(=O)c3cccs3)cccc2C1=O,4.1,-2.0
C[C@@H]1CN([C@@H](C)CO)C(=O)c2cc(C#Cc3ccccn3)cnc2O[C@H]1CN(C)Cc1cncnc1,12.3,24.4
Cc1ccccc1S(=O)(=O)N1[C@@H]2CNC[C@H]1C2c1ccc(/C=C/c2ccccc2)cc1 (stereo partly specified),8.4&-3.5,-13.9&0.0
COc1ccc(S(=O)(=O)N(C)C[C@@H]2Oc3c(NC(=O)C4CCOCC4)cccc3C(=O)N([C@H](C)CO)C[C@H]2C)cc1,-3.5,-0.7
O=C([C@H]1[C@H](CO)[C@H]2Cn3c(ccc(/C=C/c4ccccc4)c3=O)[C@@H]1N2)N1CCCCC1,-2.4,-7.2
O=C(C[C@@H]1CC[C@@H]2[C@H](COC[C@@H](O)CN2S(=O)(=O)c2ccccc2)O1)NCCN1CCCCC1,7.8,2.7
CCCc1cn([C@@H]2C[C@@H]3O[C@H](CO)CC[C@@H]3O[C@@H]2CCc2ccc(-c3cccc(OC)c3)cc2)nn1,-7.1,-8.0
C[C@H](CO)N1C[C@H](C)[C@H](CN(C)Cc2ccc(Cl)c(Cl)c2)Oc2c(NC(=O)c3cnccn3)cccc2C1=O,11.5,-7.6
CN1CCN(C(=O)C[C@H]2C=C[C@@H](NC(=O)Nc3ccccc3F)[C@@H](CO)O2)CC1,0.4,0.5
C[C@H]1CN([C@@H](C)CO)C(=O)c2cc(-c3ccc(F)cc3)cnc2O[C@H]1CN(C)CC1CCOCC1,0.3,-0.9
COCC(=O)N1CC2(C1)[C@H](c1ccc(-c3ccc(F)cc3)cc1)[C@@H](CO)N2C(=O)C1CC1,-1.7,-5.3

High-throughput results as filed in PubChem.

Some of the compounds tested. The share of hits here may be higher or lower than overall.
